# Ecoli rRNA inh = inhibitors of bacterial rRNA selective over humanized ribosomes; actives 1.6% (n = 350,000); AID 720706; E. coli WT GFP vs humanized-ribosome RFP mutants, fluorescence, 24 h; stronger effect = lower value; DMSO median 0, no signal -100; GFP signal change (wild-type ribosome), % (test concentration not listed);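 active = significant combined selectivity score with lowered wild-type GFP, culture density cut under 30%, mutant RFP and density less affected; inactive = any of these conditions unmet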; also: one replicate is shown; some compounds called inactive have numbers as strong as hits
# AF4-AF9 inh = blocks AF4 peptide binding to human AF9 | P42568 | AlphaScreen, biotin-AF4 peptide binding to FLAG-AF9 | inhibition, % at 10 µM | actives 0.47% (n = 350,000) | AID 651704;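 active = every replicate reaching a set inhibition limit, whatever the replicate mean, cut at about 25% in these data; inconclusive = mean inhibition reaches that limit but some replicates miss it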;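 also: 0% = plate neutral control median and 100% = total signal loss; the record names both 10 and 1 µM as test concentration; the first replicate is given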
# FGF22 binding = FGF22 (human) thermal shift binding; Q9HCT0; recombinant FGF22 thermal shift, SYPRO orange fluorescence; percent of sucrose octasulfate shift, DMSO zero; calls only at 9.99 µM; actives 1.5% (n = 340,000); AID 651658;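 active = melting point raised past a set limit in the mean and every replicate; inconclusive = no clear call; three in four hits are not shown here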
# Target sequence (Q9HCT0 whole entry, looked up): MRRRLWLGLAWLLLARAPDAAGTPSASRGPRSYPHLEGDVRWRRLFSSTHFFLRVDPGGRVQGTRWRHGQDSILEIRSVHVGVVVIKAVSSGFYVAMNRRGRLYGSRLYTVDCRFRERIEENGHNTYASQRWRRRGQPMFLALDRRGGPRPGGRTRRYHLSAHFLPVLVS
# E coli growth = inhibitors of Escherichia coli growth. OD600, 23 h; stronger effect = lower value. OD600 absorbance (concentration not given with the values). actives 0.21% (n = 330,000);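 active = OD600 absorbance below the run mean of sample wells minus 3.6 SD, in any replicate, cut at about 0.56 in these data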;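 also: stock transfer was 300 nL into about 60 µL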
# HNF4A DNA FP = change in binding of human HNF4 alpha to DNA | HNF4a-FITC DNA binding, fluorescence polarization, 1 h | P41235 | AID 1224865 | activity change, % at 10 µM | actives 0.3% (n = 360,000); in the data active = activity change above about 30%, passing the limit was not always enough;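 also: controls were the assay level and a saturating level of protein; the project sought stronger binding though the title names inhibitors; some compounds called inactive have numbers as strong as hits; positive values seem to mean higher polarization but the record does not say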
# Target sequence (P41235 whole entry, looked up): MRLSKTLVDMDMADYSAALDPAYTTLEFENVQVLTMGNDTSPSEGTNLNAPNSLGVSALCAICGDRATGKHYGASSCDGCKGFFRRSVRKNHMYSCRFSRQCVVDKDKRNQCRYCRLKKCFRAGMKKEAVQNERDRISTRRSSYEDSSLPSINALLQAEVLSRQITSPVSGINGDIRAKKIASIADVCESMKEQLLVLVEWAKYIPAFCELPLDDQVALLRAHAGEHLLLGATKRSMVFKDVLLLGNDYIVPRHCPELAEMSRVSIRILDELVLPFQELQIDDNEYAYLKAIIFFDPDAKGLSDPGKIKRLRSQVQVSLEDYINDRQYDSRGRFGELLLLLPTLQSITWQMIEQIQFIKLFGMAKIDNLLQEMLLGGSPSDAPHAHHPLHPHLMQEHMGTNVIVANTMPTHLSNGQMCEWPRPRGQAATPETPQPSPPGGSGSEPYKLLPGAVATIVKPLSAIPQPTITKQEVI
# ALR inh = inhibitors of human sulfhydryl oxidase ALR; P55789; purified ALR, DTT oxidation, H2O2 HRP-luminol luminescence; inhibition, % (test concentration not listed); actives 3.8% (n = 290,000);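 active = mean and each replicate at 75% or more; inconclusive = only one of the two met; inactive = neither met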;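 also: stock transfer was 7.5 nL into about 7.5 µL; 0% = neutral wells and 100% = wells with inactivated enzyme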
# Target sequence (P55789 whole entry, looked up): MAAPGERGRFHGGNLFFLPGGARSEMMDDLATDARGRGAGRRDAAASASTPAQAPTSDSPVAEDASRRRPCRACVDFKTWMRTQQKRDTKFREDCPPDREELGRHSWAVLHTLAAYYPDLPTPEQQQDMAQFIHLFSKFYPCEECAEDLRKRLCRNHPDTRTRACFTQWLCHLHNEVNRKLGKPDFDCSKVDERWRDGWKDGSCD
# Vif TR-FRET = inhibitors of Vif binding to APOBEC3G peptide, primary screen, biochemical, TR-FRET, GST-Vif 1-94, biotin-A3G peptide, dose response retest (AID 1117319) | TR-FRET GST-Vif / biotin-A3G peptide binding; higher % means a stronger effect; test concentration not given here; strong numbers were not always called active | one-dose inhibition, %; IC50 in µM for titrated hits | actives 0.57% (n = 260,000);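 active = above the screen mean plus three standard deviations and confirmed in dose response; inconclusive = results disagree or hit not tested in dose response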;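 also: Vif residues 1-94 fused to GST binding biotinylated APOBEC3G peptide 110-148; 0% = full assay without inhibitor and 100% = GST in place of GST-Vif; retest series ran down from 100 µM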
# Ecoli rRNA inh OD600 = second read-out of Ecoli rRNA inh, no call of its own (marks repeat the call); OD600 change, %; measured here: OD600 growth;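 optical density of the mix in the first replicate; 0 = DMSO median and -100 = no signal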
# Ecoli rRNA inh RFP = also measured in Ecoli rRNA inh; calls as there; RFP signal change, %; measured here: RFP humanized mutant strains;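 first replicate; 0 = DMSO median and -100 = no signal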
# An asterisk follows results filed as active; i = inactive; ? = inconclusive; / = not tested or not shown; & = joins results of further samples. The list is partial, so the mix of outcomes need not match the whole.
SMILES,Ecoli rRNA inh,Ecoli rRNA inh OD600,Ecoli rRNA inh RFP,AF4-AF9 inh,FGF22 binding,E coli growth,HNF4A DNA FP,ALR inh,Vif TR-FRET
C[C@H](O)C#Cc1cnc2c(c1)C(=O)N([C@H](C)CO)C[C@H](C)[C@@H](CN(C)C(=O)CN(C)C)O2,4,6,-0.9,-2.3,i,/,/,/,/
Cc1nc(C2COc3ccccc3O2)sc1C(=O)O (centres undefined),-1,0,-1.3,-3.1,i,0.69,-55,-4,-1%
Fc1ccc(-c2cnn3c(-c4ccncc4)ccnc23)cc1,6,7,-0.9,1.7,i,0.71,4.0,-5,-3%
CCOC(=O)c1cc(-c2c(Cl)cccc2Cl)no1,-2,-5,-1.7,-1.4,i,0.71,0.1,-3,/
O=S(=O)(NC1CC1)c1ccccc1,12,8,2.4,-1.3,i,0.67,-0.8,-4,-2%
COc1ccccc1S(=O)(=O)N[C@H]1CC[C@@H](CC(=O)NCc2cc(F)cc(F)c2)O[C@@H]1CO,2,1,1.8,-1.2,i,/,/,/,/
CC(=O)N1CCc2cc(S(=O)(=O)C(C)CC(=O)NCc3ccco3)ccc21 (centres undefined),0,-1,2.0,-4.0,/,/,-2.1,/,-4%
CCSc1nc2c(c(=O)[nH]1)C(c1cccnc1)C(C(=O)OC(C)C)=C(C)N2 (centres undefined),/,/,/,/,/,0.69,-1.9,1,8%
NC(=S)Nc1ccc(Cl)cc1Cl,1,0,-1.6,-6.7,i,0.66,2.0,-12,/
C/C=C/c1ccc2c(c1)O[C@H](CN(C)C(=O)Nc1ccccc1)[C@H](C)CN([C@H](C)CO)S2(=O)=O,-2,-11,0.4,4.4,i,/,/,/,/
O=C(C[C@H]1C=C[C@@H](NC(=O)Nc2ccc3c(c2)OCO3)[C@H](CO)O1)NCc1ccccc1,0,4,-1.3,-0.6,i,/,/,/,/
O=C(CCN1C(=O)/C(=C/c2ccccc2Cl)SC1=S)NC1=NCCS1,-20,-8,14,2.7,i,0.65,-2.4,-3,10%
Cc1ccc(C)c(S(=O)(=O)N2CCN(C(=O)c3cc(-c4cccs4)nn3-c3ccccc3)CC2)c1,2,14,-0.2,-3.2,i,0.7,-5.3,-4,-4%
Cc1onc(-c2c(F)cccc2Cl)c1C(=O)N1CCN(S(C)(=O)=O)CC1,/,/,/,/,/,0.67,3.3,-1,32%
CC(=O)c1nn(-c2ccc(Cl)cc2)c(=O)[nH]c1=O,3,9,-0.3,-2.7,i,0.64,-0.5,-3,1%
Cc1cc(Br)c2nc(-c3cccc(Br)c3)c(Cc3cccc(Cl)c3)n2c1,-6,-24,3.5,-0.4,i,/,/,/,/
CC1(C(=O)Nc2ccccc2)CCN1C(=O)C1(c2ccccc2)CC1 (centres undefined),-13,-14,-3.0,-4.2,i,/,1.1,/,/
Cc1[nH]n(-c2ccccc2)c(=O)c1C=NCCc1ccccc1,2,-1,1.6,1.1,i,/,4.8,-1,0%
CCOC(=O)C(C)n1cnc2c(nnn2-c2ccc(OC)cc2)c1=O (centres undefined),/,/,/,/,/,0.72,-1.6,-2,-1%
CC(C)N(C)Cc1nnnn1CC(=O)N(C)Cc1cccc(Cl)c1,-6,-1,-0.6,-2.5,i,0.73,-0.1,2,/
COc1ccc(/C=C2\SC(=NCc3ccccc3)NC2=O)cc1,/,/,/,/,/,0.71,-2.7,1,-6%
c1ccc(Cc2cc(-c3ccccc3)on2)cc1,/,/,/,/,/,0.7,0.4,2,0%
COc1cccc(C2NC(=O)c3sc(=S)n(-c4ccccc4)c3N2)c1 (centres undefined),/,/,/,/,/,0.69,0.3,97*,3%
C[C@@H]1CN([C@H](C)CO)C(=O)CCCn2nncc2CO[C@H]1CN(C)C(=O)Nc1ccc(-c2cccs2)cc1,-4,-9,1.1,4.0,i,/,/,/,/
CCN(CC)C(=O)CN(C#N)c1nc(C)cc(C)n1,14,8,-0.3,-1.2,i,0.72,-0.5,-8,19%

# Reprinted from the part before: 2 compounds, followed by the next part.
SMILES,Ecoli rRNA inh,Ecoli rRNA inh OD600,Ecoli rRNA inh RFP,AF4-AF9 inh,FGF22 binding,E coli growth,HNF4A DNA FP,ALR inh,Vif TR-FRET
C[C@@H]1CN([C@H](C)CO)C(=O)CCCn2nncc2CO[C@H]1CN(C)C(=O)Nc1ccc(-c2cccs2)cc1,-4,-9,1.1,4.0,i,/,/,/,/
CCN(CC)C(=O)CN(C#N)c1nc(C)cc(C)n1,14,8,-0.3,-1.2,i,0.72,-0.5,-8,19%
NC(=O)c1cccc(-c2cccc(OC(=O)NC3CCCCC3)c2)c1,-4,3,-1.6,-13,i,0.58,-6.1,31,-5%
Cc1ccccc1NC(=S)NC(=O)c1cncc(Br)c1,/,/,/,/,/,0.72,2.3,13,-11%
CC1(C(=O)Nc2ccc3nc[nH]c3c2)CCN1C(=O)Cc1ccc(-c2ccccc2)cc1 (centres undefined),-27,-37,2.6,1.3,i,/,4.7,/,/
COc1ccc(NC(=O)Nc2ccc3c(c2)C(=O)N([C@@H](C)CO)C[C@H](C)[C@@H](CN(C)C(=O)Nc2ccc(C(F)(F)F)cc2)OCCCC[C@H](C)O3)cc1,2,-3,0.7,-8.1,i,/,/,/,/
Cc1cc(OCC(=O)NCC(O)c2ccccc2)c2c(C)cc(=O)oc2c1 (centres undefined),-5,-9,-1.5,-8.3,i,0.67,-0.2,0,/
O=S(=O)(Nc1cccc(C(F)(F)F)c1)c1cnc[nH]1,/,/,/,/,/,0.71,1.1,-1,13%
COc1ccc2nc(NC(=O)c3ccccc3-c3ccccc3C(=O)O)sc2c1,7,5,2.6,-0.5,i,0.76,0.7,/,2%
COc1ccc(CN(C(=O)c2ccc(CN3CCOCC3)o2)C(C(=O)NCC2CCCO2)c2ccc(F)cc2)cc1 (centres undefined),1,-9,-1.2,-1.3,i,0.68,12,-10,0%
CCn1c2ccccc2c(=O)c2ccccc21,-14,-34,-6.7,-5.4,i,0.64,-2.0,/,/
CCOC(=O)Cn1c(=N)n(CCOc2ccc(F)cc2)c2ccccc21,/,/,/,4.2,i,0.71,3.0,-2,-8%
CC(C)c1ccccc1-n1c(SCc2cc(=O)oc3ccc4ccccc4c23)nnc1-c1cccnc1,-16,-6,4.6,?,i,0.78,0.1,-9,26%
COc1ccccc1NC(=O)c1ccc(NC(=O)CSc2nncn2C)cc1,16,16,1.2,-0.3,i,0.72,-1.0,-10,/
COc1ccc(CN2CCCCC2c2cccnc2)c(OC)c1C (centres undefined),/,/,/,/,/,0.65,21,-4,/
Cc1nnc2ccc(-c3cccc(NS(C)(=O)=O)c3)nn12,1,-3,-0.3,-3.3,i,0.67,-1.3,-1,31%
COc1ccc(-c2ccc([C@@H]3[C@@H](C#N)N[C@@H]3CO)cc2)cc1,-2,-7,-2.5,-0.6,i,/,/,/,/
Cc1ccc2nc(-c3ccncc3)cc(-c3ccccc3)c2c1,/,/,/,/,/,0.71,-1.3,-3,-4%
CC1CCc2nn(CC(=O)NC3CCCC3)cc2C1 (centres undefined),11,0,-1.4,-3.4,i,0.73,-4.3,3,-4%
C[C@H]1CN([C@@H](C)CO)C(=O)CCCn2nncc2CO[C@@H]1CN(C)C(=O)Nc1ccc2c(c1)OCO2,3&2,6&12,-1.4&2.8,0.1&-1.0,i,/,-3.7,/,0%
C[C@@H]1CN([C@@H](C)CO)C(=O)Cc2cc(NC(=O)CCCCCC(=O)Nc3ccccc3N)ccc2O[C@@H]1CN(C)C,0,-1,-0.6,3.8,i,/,/,/,/
COC(=O)[C@H](CC(C)C)NC(=O)NC1CCCc2ccccc21 (some centres undefined),/,/,/,/,/,0.75,5.3,-1,10%
COc1ccc(NC(=S)N2CCCC(CO)C2)c(OC)c1 (centres undefined),17,8,6.1,-4.3,i,0.72,-1.0,-5,0%
O=C(Nc1ccc(N2CCN(C(=O)c3ccc(Cl)cc3)CC2)cc1)c1ccc([N+](=O)[O-])o1,2,15,-5.4,-2.0,i,0.61,-0.1,/,0%
CC12CC3CC(C)(C1)CC(CN1CCOCC1)(C3)C2,/,/,/,/,/,0.76,-0.5,/,-2%
O=C(NCC1CCCO1)C(c1ccc(F)cc1)N(C(=O)Cn1nnc(-c2ccc(F)cc2)n1)c1cccc(O)c1 (centres undefined),15,3,0.8,-3.3,i,0.68,-1.6,0,3%
NC(=O)[C@H]1CC2(CC(c3cccc(NC(=O)[C@H]4CCC(=O)N4)c3)=NO2)CN1C(=O)c1ccccc1C(=O)c1ccccc1 (some centres undefined),/,/,/,/,/,/,-1.3,-11,1%

# Whole records from above:
# Listed for CC(=O)N1CCc2cc(S(=O)(=O)C(C)CC(=O)NCc3ccco3)ccc21 (centres undefined) : Ecoli rRNA inh: 0; Ecoli rRNA inh OD600: -1; Ecoli rRNA inh RFP: 2.0; AF4-AF9 inh: -4.0; FGF22 binding: /; E coli growth: /; HNF4A DNA FP: -2.1; ALR inh: /; Vif TR-FRET: -4%
# Listed for CCN(CC)C(=O)CN(C#N)c1nc(C)cc(C)n1 : Ecoli rRNA inh: 14; Ecoli rRNA inh OD600: 8; Ecoli rRNA inh RFP: -0.3; AF4-AF9 inh: -1.2; FGF22 binding: i; E coli growth: 0.72; HNF4A DNA FP: -0.5; ALR inh: -8; Vif TR-FRET: 19%
# Listed for Cc1ccccc1NC(=S)NC(=O)c1cncc(Br)c1 : Ecoli rRNA inh: /; Ecoli rRNA inh OD600: /; Ecoli rRNA inh RFP: /; AF4-AF9 inh: /; FGF22 binding: /; E coli growth: 0.72; HNF4A DNA FP: 2.3; ALR inh: 13; Vif TR-FRET: -11%

# The results go on.
SMILES,Ecoli rRNA inh,Ecoli rRNA inh OD600,Ecoli rRNA inh RFP,AF4-AF9 inh,FGF22 binding,E coli growth,HNF4A DNA FP,ALR inh,Vif TR-FRET
COc1cccc(C(=O)Nc2ccc3c(c2)OC[C@@H](C)NC[C@@H](C)[C@@H](OC)CN(C)C3=O)c1,3,5,-0.8,-2.3,i,/,/,/,/
CCOc1ccc(N(CC(=O)Nc2ccccc2OCC)S(=O)(=O)c2c(C)noc2C)cc1,-3,-1,0.8,0.7,i,0.76,3.0,-4,13%
Cc1cc(Br)cn2c(Cc3ccsc3)c(-c3ccc(F)cc3)nc12,-27,-23,37,-1.6,i,/,-10,/,/
Cc1noc(C)c1S(=O)(=O)Nc1ccc2c(c1)C(=O)N([C@H](C)CO)C[C@@H](C)[C@@H](CN(C)Cc1ccc3c(c1)OCO3)OCCCC[C@@H](C)O2,2,-6,1.4,7.4,i,/,/,/,/
O=C(C[C@@H]1CC[C@@H](NS(=O)(=O)c2ccccc2)[C@@H](CO)O1)N1CCN(c2ccccc2)CC1,-6,2,-6.6,-1.2,i,/,/,/,/
COc1ccc2oc(=Nc3cc(F)ccc3F)c(C(N)=O)cc2c1,12,2,0.0,1.6,/,0.7,-1.1,-2,5%
CC[C@@H](C)C(NC(=O)OC(C)(C)C)c1cn([C@@H](CCCCNC(=O)OC(C)(C)C)C(=O)N2CCN(C(=O)OC(C)(C)C)CC2)nn1 (some centres undefined),/,/,/,-2.6,i,/,3.9,-6,1%
CC(C)N1CCC(N2CCN(C/C=C/c3ccccc3)CC2CCO)CC1 (centres undefined),/,/,/,/,/,0.69,1.4,-7,4%

# Screens from PubChem BioAssay.
